PABP FP inh – blocks human PABP binding to poly(A) RNA. P11940. fluorescence polarization. 290,000 tested, 1% active. AID 2014. inhibition, % at 35 µM;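 active = 50% or more with normal probe brightness, or confirmed in later tests; inconclusive = above 50% with abnormal brightness, or retests that disagree; inactive = below 50% or failed in later tests; about a fifth of its hits are not listed in these tables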;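 also: calls also rest on retests at 20 µM and on dose response follow-up; controls were probe without protein and protein plus probe with vehicle; some compounds called inactive have numbers as strong as hits; many hits fall short of the cut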
Yeast UUG start – modulators of start codon recognition fidelity in yeast. S. cerevisiae UUG-firefly luciferase reporter, luminescence/redox ratio. activity score, % at 18.7 µM. 350,000 tested, 0.13% active. AID 602363;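 active = replicate mean at a twofold rise or more, about +100% in these data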;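 also: firefly luciferase made from a UUG start codon reports start codon fidelity; reporter light over untreated wells divided by growth signal over untreated wells; some hits fall short of that in this replicate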
Rce1 inh – inhibitors of yeast Ras-converting enzyme; yeast membranes, quenched prenylated peptide cleavage fluorescence; 290,000 tested, 0.27% active; Q03530; calls only; AID 2563;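 active = fall in fluorescence gain of 50% or more versus controls, with final raw signal at or below 3038400; inconclusive = same 50% fall but final raw signal above 3038400; inactive = fall in fluorescence gain under 50%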;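 also: plate controls were neutral control wells for no effect and wells lacking membranes for full effect; tested at 10 µM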
Target sequence (Q03530 whole entry, looked up): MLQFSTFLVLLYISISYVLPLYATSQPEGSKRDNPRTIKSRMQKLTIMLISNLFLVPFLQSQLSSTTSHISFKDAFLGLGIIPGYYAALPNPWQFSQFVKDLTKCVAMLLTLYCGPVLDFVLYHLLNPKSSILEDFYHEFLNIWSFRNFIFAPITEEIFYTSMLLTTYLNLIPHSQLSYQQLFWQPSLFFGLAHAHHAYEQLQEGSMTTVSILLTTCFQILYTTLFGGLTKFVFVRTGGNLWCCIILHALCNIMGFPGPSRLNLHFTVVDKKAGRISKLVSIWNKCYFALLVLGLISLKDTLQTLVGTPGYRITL
eIF4H inh – inhibitors of RNA binding by human eIF4H; Q15056; eIF4H fluorescence polarization binding assay; inhibition, % at 35 µM; 290,000 tested, 0.94% active;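 active = 50% or more with normal probe brightness, or confirmed in later tests; inconclusive = above 50% with abnormal brightness, or retests that disagree; inactive = below 50% or failed in later tests; about a fifth of its hits are not listed in these tables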;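 also: calls also rest on retests at 20 µM and on dose response follow-up; 0% = protein and probe with vehicle and 100% = probe without protein; strong numbers were not always called active; many hits fall short of the cut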
MT1-MMP act inh – blocks activation of human MT1-MMP; HT1080 RFP-PRO-GFP cells, GFP/RFP ratio fluorescence, overnight; percent of plate control window, DMSO zero; GFP/RFP ratio change, % at 20 µM; 360,000 tested, 0.061% active;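 active = GFP/RFP ratio change of at least 30% with cell ATP level not reduced by more than half and red fluorescence within 50% of control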; also: strong numbers were not always called active
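Assay system – RFP-PRO-GFP reporter HT1080 cells · Compound dosing – single dose of 20 µM compound, 1% DMSO final · Incubation – overnight compound exposure at 37 °C · Measure – GFP/RFP fluorescence ratio · Benchmarks – DMSO wells and RFP-L50D-GFP cells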
CSC inhib – blocks cancer stem cells; cancer stem cell-like cells viability, luminescence; inhibition, % at 7.5 µM; 300,000 tested, 1.1% active; AID 2717;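 active = mean at 75% or more and at least half the replicates too; inconclusive = mean and replicates disagree; tested in HMLE shEcad cells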;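 also: 0% = median of negative and 100% = median of positive control wells; the first replicate is given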
Env fusion inh – blocks HIV Env-driven cell-cell fusion; HeLa-JRFL Env/CEM21 cell fusion, luciferase; inhibition, % at 12.3 µM; 360,000 tested, 1.1% active;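 active = mean replicate inhibition score of at least 50 and every replicate individually at or above 50; inconclusive = only one of the two criteria met; inactive = mean below 50 and not all replicates reaching 50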;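 also: 0% = plate neutral controls and 100% = maraviroc near 300 nM; one replicate is shown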
MT1-MMP act inh RFP – recorded beside MT1-MMP act inh, whose call it bears; RFP signal change, %; measured here: RFP expression control read;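 0 = vehicle wells; hits needed this value within 50% of zero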
Starred values were filed as active, the others as inactive; i = inactive; ? = inconclusive; . = no result given; & = joins results of further samples.

SMILES	PABP FP inh	Yeast UUG start	Rce1 inh	eIF4H inh	MT1-MMP act inh	MT1-MMP act inh RFP	CSC inhib	Env fusion inh
CSc1nc(C)c(CCOC(=O)c2cccc(C)c2)c(=O)[nH]1	0	-27	i	-2	1	5	4	-92
CC(C)(C)C(=O)Cn1c(=N)n(Cc2ccccc2)c2ccccc21	-1	.	i	-14	-8	-10	3	.
CCc1nnc(SCc2ccc(CSc3nnc(CC)n3N)cc2)n1N	13	-16	i	-2	0	3	.	-6
COc1ccccc1C(=O)NCCn1cc(SCC(=O)Nc2cc(C)on2)c2ccccc21	-2	.	i	-6	5	-5	-11	?
Brc1ccc(COc2cccc3cccnc23)cc1	.	-25	i	.	2	0	4	-34
COc1cc(-c2noc(C)c2C(=O)NCc2ccc3c(c2)OCO3)cc(OC)c1OC	.	-14	.	.	7	2	.	-2
CSc1nc(SCC(=O)NC(c2ccccc2)c2ccccc2)c2c3c(sc2n1)CN(C)CC3	-63	-18	i	-24	-1	-2	35	-7
Cc1ccccc1C(=O)N1CCN(c2ccc(NC(=O)c3ccccc3[N+](=O)[O-])cc2)CC1	-11	.	i	5	-2	-4	-11	17
Cc1[nH]n(-c2ccccc2)c(=O)c1/C=N/c1ccccn1	1	-11	i	-9	2	6	-6	.
Cc1cc2oc(=O)cc(CN3CCN(S(=O)(=O)c4cccs4)CC3)c2cc1C(C)C	11	14	i	4	-12	-7	-4	26
CCOC(=O)c1[nH]c(C)c(C(=O)N(CC)CC)c1C	0	-9	i	-1	6	8	.	-29
O=C(CCNC(=O)c1ccccc1Cl)Nc1ccc(Br)c(C(F)(F)F)c1	-2	-21	i	-4	1	-2	8	11
CCOC(=O)CNC(=O)/C=C/c1c(Cl)cccc1Cl	26	.	i	-4	6	5	-13	.
CC(C)OC(=O)c1cccc2c1C(=O)c1ccccc1-2	-3	4	i	1	1	0	3	8
CCc1nn(CC(=O)N2CCN(Cc3ccc4c(c3)OCO4)CC2)c(=O)c2cc3occc3n12	-5	-29	i	-4	-2	-11	.	.

Full records from above.
Cc1cc2oc(=O)cc(CN3CCN(S(=O)(=O)c4cccs4)CC3)c2cc1C(C)C in the list: PABP FP inh: 11; Yeast UUG start: 14; Rce1 inh: i; eIF4H inh: 4; MT1-MMP act inh: -12; MT1-MMP act inh RFP: -7; CSC inhib: -4; Env fusion inh: 26
CCOC(=O)CNC(=O)/C=C/c1c(Cl)cccc1Cl in the list: PABP FP inh: 26; Yeast UUG start: .; Rce1 inh: i; eIF4H inh: -4; MT1-MMP act inh: 6; MT1-MMP act inh RFP: 5; CSC inhib: -13; Env fusion inh: .

Further compounds follow:
SMILES	PABP FP inh	Yeast UUG start	Rce1 inh	eIF4H inh	MT1-MMP act inh	MT1-MMP act inh RFP	CSC inhib	Env fusion inh
CCOC(CNC(=O)CN1C(=O)COc2ccc(S(=O)(=O)N3CCCC3)cc21)OCC	5	-17	i	20	2	3	.	-4
CCOc1ccccc1NC(=O)CSc1nc(=O)n(CCCN2CCOCC2)c2c1CCC2	.	2	i	.	-2	1	-20	8
Cn1c(=O)c2c(nc(CN3CCc4ccccc4C3)n2CCCO)n(C)c1=O	1	.	i	-11	5	5	-11	0
COc1ccc(C(=O)NCc2cn3ccccc3n2)cc1	5	-1	i	-5	2	1	-12	.
COc1cc(C2C(C#N)=C(N)N(c3cccnc3)C3=C2C(=O)CC(C)(C)C3)ccc1O (centres undefined)	22	-8	i	10	-2	0	-14	-13
COc1cc(CN2CCC(C(=O)N3CCCC(C)C3)CC2)cc(Br)c1O (centres undefined)	19	-16	i	-1	-3	3	4	-144
Nc1cccc2c(O)cccc12	.	.	i	.	-2	2	1	8
COc1ccccc1C1=NN(C(=O)c2ccccc2)C(c2ccc(Br)cc2)C1 (centres undefined)	8	-12	i	-1	2	-4	7	21
Cc1ccc(Cn2c(C)c3cnn(CC(=O)NC4CCCC4)c(=O)c3c2C)cc1	-10	-7	i	-16	-3	-4	-11	-57
CN1CCN(Cc2nc(N)nc(Nc3ccc4c(c3)OCCO4)n2)CC1	8	.	i	0	1	5	0	-44
CC(C)c1ccc(CN2CCC2(C)C(=O)Nc2cccc(Oc3ccccc3)c2)cc1 (centres undefined)	.	0	.	.	-1	-8	.	29
C(=C\c1ccccc1)/CN1CCN(C(c2cc3ccccc3o2)c2nnnn2C2CCCC2)CC1 (centres undefined)	.	-4	.	.	-1	-14	.	16
CC(=O)Nc1cc(-c2ccccc2CN(C)C)cn2c(-c3ccc(F)c(Cl)c3)cnc12	.	2	.	.	-7	5	.	-29
CSc1nc2ccc(NS(=O)(=O)c3ccc([N+](=O)[O-])cc3)cc2s1	-1	-12	i	-4	0	-2	0	6
COc1cc(/C(C)=N/NC(=O)Cc2c(C)[nH][nH]c2=O)ccc1O	8	5	i	1	5	6	.	10
C/C=C/c1ccc2c(c1)O[C@@H](CN(C)C(=O)c1ccc(F)cc1)[C@@H](C)CN([C@H](C)CO)S2(=O)=O	.	9&20&17	.	.	-8	-7	.	-9
COc1ccccc1C(=O)NC(C)c1ccc(-n2ccnc2)cc1 (centres undefined)	-8	-16	i	1	5	1	1	6
COCCNC(=O)Cc1c(C)c2cc3c(cc2oc1=O)OC(C)(C)CC3	-2	-13	i	1	4	3	-3	6
CC(=O)NC(Cc1c[nH]c2ccccc12)C(=O)NCc1ccco1 (centres undefined)	-8	-17	i	-6	-1	1	-9	11
O=C(CNC(=O)N1CC(=O)Nc2ccccc21)Nc1ccc(Cl)cc1Cl	.	-2	.	.	1	2	.	-11
CS(=O)(=O)c1ccc(-c2csc(C(O)(c3ccccc3)C(F)(F)F)n2)cc1 (centres undefined)	.	-5	.	.	-4	-5	.	-13
Clc1cccc(Cc2ccc(Cl)nn2)c1	-3	.	i	8	-2	-1	-9	36
CCOc1ccc(NC(=O)CN(C)C(=O)CCc2nc3ccccc3c(=O)[nH]2)cc1OCC	.	-2	.	.	1	1	.	1
O=c1oc2ccccc2c(Nc2ccccc2)c1[N+](=O)[O-]	0	-9	i	3	6	2	5	.
COC(=O)C1=C(C)N(CCCC(=O)O)C(=O)NC1c1ccccc1OS(=O)(=O)c1ccc([N+](=O)[O-])cc1 (centres undefined)	.	-12	i	.	-2	4	-3	11
O=C(NCC1CCCN1S(=O)(=O)c1cccs1)c1ccccc1 (centres undefined)	.	-4	i	.	1	-2	.	-9
CCOC(=O)CC(S(=O)(=O)c1ccccc1)S(=O)(=O)c1ccccc1	.	-11	.	.	-3	0	.	14
Cc1cccc(NC(=S)N2CCN(C(=O)c3ccco3)CC2)c1C	3	-6	i	-3	2	4	.	5
CCc1nnc(NC(=O)c2nc(S(=O)(=O)Cc3ccccc3)ncc2Cl)s1	0	-12	i	-13	3	0	101*	32
COC(=O)c1cccc(N(CC(=O)NCC2CCCO2)C(=O)CCC(=O)Nc2cc(C)on2)c1 (centres undefined)	-4	-8	i	-16	-2	-1	-26	-10
CC(Sc1nnc2n1CCCCC2)C(=O)Nc1cccc(S(=O)(=O)N2CCOCC2)c1 (centres undefined)	.	-16	.	.	4	-1	.	-2
Cc1c(OCC(=O)NC(Cc2ccc(Cl)cc2)C(=O)O)ccc2c3c(c(=O)oc12)CCC3 (centres undefined)	14	-20	i	-8	0	0	-7	.
O=C1C2C3C=CC(CC3)C2C(=O)N1c1cccc(C(F)(F)F)c1 (centres undefined)	-6	-13	i	-6	4	-6	-3	11
O=C(Nc1nc2ccccc2n1CCN1CCOCC1)c1ccccc1	-9	-23	i	-6	-1	1	-9	-26
CCC1=Nc2cc(C(=O)NCC3CCCO3)ccc2Sc2ccc(Br)cc21 (centres undefined)	2	.	i	4	-12	-13	49	-22
CCCCN1CCCCC1C(=O)Nc1c(C)cccc1C (centres undefined)	.	19	.	.	3	4	-5	-10
COc1cccc(C=Nc2ccc3c(c2)CCC3)c1O	4	-16	i	-1	-1	1	4	5
CCOC(=O)c1ccc(NCc2nc3ccccc3[nH]2)cc1	-11	-27	i	-11	3	-6	0	.
Cn1c(CNC(=O)Nc2ccccc2Cl)nnc1SCc1ccccc1	0	-2	.	-3	1	-3	-3	-24
COc1cc(O)c(C(CCN2CCOCC2)c2ccc3c(c2)OCO3)c(OC)c1 (centres undefined)	-8	-7	i	-5	1	-1	-2	-16
COc1ccc(NC(=O)C2CCC(=O)N2C(=O)OCc2ccccc2)cc1 (centres undefined)	11	-17	i	-4	3	6	12	-4
Cc1cc(C)cc(C(=O)N/N=C/c2ccoc2)c1	10	-15	i	28	0	3	-5	-1
Nc1ccccc1Sc1ccc(C(=O)c2ccccc2C(=O)O)cc1[N+](=O)[O-]	34	6	i	19	-5	0	2	-44
NC(=O)CSc1nc2c(sc3ccccc32)c(=O)n1CCCC(=O)NCC1CCCO1 (centres undefined)	8	-7	i	-10	2	-1	-3	6
Cn1cc(C2CC(c3ccccc3)=NN2C(=O)c2ccccc2)c2ccccc21 (centres undefined)	3	-15	i	7	-10	-12	40	-20
O=C(CSc1n[nH]c(-c2cccs2)n1)N1CCCc2ccccc21	-3	-12	i	-5	1	-3	3	5
CCN(CC(=O)Nc1cc(Cl)ccc1C)c1ncnc2sc(C)c(C)c12	4	.	i	-9	1	-9	7	?
CN1CCN(C(=O)c2ccc(CS(=O)(=O)c3c(Cl)cccc3Cl)o2)CC1	-3	-34	i	6	-3	5	-9	-8
Cn1c(SCC(=O)NCc2ccccc2)nc2ccccc21	0	-7	i	3	6	4	-11	-116
Cc1ccc(S(=O)(=O)N2CCC(N3CCCCCC3)CC2)cc1	2	-7	i	-4	0	0	55	-4
O=C(Nc1ccon1)c1csc2ccccc12	2	3	i	-7	-7	-2	0	.
O=C(Nc1nc(-c2ccc(F)cc2)cs1)C1CCCO1 (centres undefined)	-5	.	i	-7	5	-7	.	-19
Cn1ccsc1=NC(=O)c1ccccc1OC(F)F	4	-7	i	-17	-2	5	-12	10
COc1ccc(C2=NOC(C(=O)Nc3cc(Br)ccc3O)C2)cc1OC (centres undefined)	-14	-12	i	-8	6	3	6	20
O=C(COc1ccc(Cl)cc1Br)Nc1ccncc1	-1	-13	i	-7	-8	-27	8	-116
Cc1ccc(C(c2c(C)n(C)n(-c3ccccc3)c2=O)c2c(C)n(C)n(-c3ccccc3)c2=O)s1	0	.	i	6	0	-5	9	2
CC(C)C(C(=O)C=[N+]=[N-])N1C(=O)c2ccccc2C1=O (centres undefined)	-2	-9	i	4	-2	8	-8	.
Cc1noc(NS(=O)(=O)c2ccc(N3CC(O)=C(c4ccccc4)C3=N)cc2)c1C	32	-13	i	2	4	0	-8	.
CN(C)c1ccc(NC(=O)Nc2ccc3c(c2)c(=O)n(C)n3-c2ccccc2)cc1	.	-10	.	.	-1	4	.	-24
Cc1ccc(-c2cc(C(=O)N3CCN(C(=O)c4ccco4)CC3)[nH]n2)c(C)c1	-5	.	i	-14	3	-1	12	-3

Other entries:
SMILES	PABP FP inh	Yeast UUG start	Rce1 inh	eIF4H inh	MT1-MMP act inh	MT1-MMP act inh RFP	CSC inhib	Env fusion inh
O=c1[nH][nH]cc1C=Nc1cc(Cl)ccc1O	3	.	i	19	2	-3	49	21
COc1ccc(N(CC(=O)N2CCN(c3ccc(F)cc3)CC2)S(=O)(=O)c2c(C)n[nH]c2C)cc1	?	0	i	4	6	9	.	13
CCC(=O)N1N=C(c2ccc(C)o2)CC1c1ccc(Br)cc1 (centres undefined)	18	-10	i	-4	-1	1	.	-15
CCC(C(=O)NC1CCCC1)N(Cc1ccccc1Cl)C(=O)c1snc(C(N)=O)c1N (centres undefined)	5	21	i	0	-1	2	2	-5
